# High-throughput results (PubChem)
# LANA-H2B inh: blockers of LANA interaction with H2A/H2B – biochemical, FP readout, HTS, primary screen | Protein LANA1 (Human herpesvirus 8 type P (isolate GK18)), Q9QR71 | cell-free LANA-H2A/H2B peptide, fluorescence polarization | inhibition, % (concentration not given with the values) | 320,000 tested, 0.6% active | AID 2629, 2010; in the data active = inhibition mostly above about 10%, no sharp cut-off; inactive = mostly below about 6.7%;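 note: stock transfer was 7.5 nL into about 10 µL; 0% = median of vehicle wells and 100% = median of positive control wells; one replicate is shown; the record names a cut of 25% in any replicate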
# Target sequence (Q9QR71 whole entry, looked up): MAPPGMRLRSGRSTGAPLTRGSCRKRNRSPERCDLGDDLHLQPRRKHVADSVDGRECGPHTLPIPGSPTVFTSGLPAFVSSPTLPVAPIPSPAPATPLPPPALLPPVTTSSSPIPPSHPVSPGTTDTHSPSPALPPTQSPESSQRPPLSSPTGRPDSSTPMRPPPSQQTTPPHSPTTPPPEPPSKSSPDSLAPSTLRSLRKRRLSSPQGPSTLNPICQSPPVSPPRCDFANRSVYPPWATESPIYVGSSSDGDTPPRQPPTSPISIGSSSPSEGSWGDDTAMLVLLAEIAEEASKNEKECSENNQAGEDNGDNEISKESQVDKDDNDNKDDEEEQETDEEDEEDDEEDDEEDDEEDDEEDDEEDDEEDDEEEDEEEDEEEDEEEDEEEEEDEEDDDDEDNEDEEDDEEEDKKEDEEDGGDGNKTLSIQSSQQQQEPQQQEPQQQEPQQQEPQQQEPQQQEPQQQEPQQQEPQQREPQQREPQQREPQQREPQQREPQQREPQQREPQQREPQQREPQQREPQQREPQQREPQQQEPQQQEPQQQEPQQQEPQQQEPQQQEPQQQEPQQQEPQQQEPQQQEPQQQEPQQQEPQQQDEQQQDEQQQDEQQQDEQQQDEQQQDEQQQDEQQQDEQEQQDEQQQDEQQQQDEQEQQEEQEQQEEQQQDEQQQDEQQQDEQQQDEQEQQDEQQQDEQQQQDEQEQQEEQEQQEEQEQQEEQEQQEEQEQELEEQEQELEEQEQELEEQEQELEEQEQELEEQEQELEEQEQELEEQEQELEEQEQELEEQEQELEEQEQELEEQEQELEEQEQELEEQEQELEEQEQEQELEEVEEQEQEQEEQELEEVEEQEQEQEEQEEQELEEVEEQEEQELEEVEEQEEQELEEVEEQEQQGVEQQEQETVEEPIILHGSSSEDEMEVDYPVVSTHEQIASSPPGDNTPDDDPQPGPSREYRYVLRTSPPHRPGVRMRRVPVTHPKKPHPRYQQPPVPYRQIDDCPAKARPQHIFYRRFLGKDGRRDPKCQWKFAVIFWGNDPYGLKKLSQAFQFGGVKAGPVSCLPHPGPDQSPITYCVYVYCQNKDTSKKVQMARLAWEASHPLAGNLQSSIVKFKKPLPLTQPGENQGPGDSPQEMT
# Bfl-1 A1 inh: caspase 3/7 activation in MEF A1-2A-BIM cells, primary screen, A1 inhibitor project, cell-based, luminescence, HTS. 330,000 tested, 0.066% active. Caspase-Glo 3/7 luminescence, 3 h; percent of clofoctol response, vehicle zero. caspase activation, % (test concentration not listed). AID 2462, 2010;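 active = over half of replicate activation scores above 10%, or exactly half above 10 with the replicate mean above 10; inconclusive = replicate mean below 10 yet half the replicates above 10; inactive = over half of replicates below 10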;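 note: wells of about 30 µL received 50 nL stock; many hits fall short of the cut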
# UCH37 DUB inh: inhibitors of human UCH37 deubiquitinase, primary screen, biochemical, Ub-AMC cleavage, fluorescence | Ubiquitin carboxyl-terminal hydrolase isozyme L5 (Homo sapiens), Q9Y5K5 | purified proteasome/UCH37 | inhibition, % (concentration not given with the values) | 330,000 tested, 0.33% active;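 active = mean of two replicates above 20%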;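 note: 0% = compound-free wells with enzyme and 100% = wells lacking proteasome; stock transfer was 100 nL into about 20 µL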
#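 Reagent: Ub-AMC substrate; assay system: Proteasome-associated human UCH37 deubiquitinase; controls: no-proteasome and no-compound wells; read-out: % inhibition of Ub-AMC cleavage fluorescence; timing: 30 min preincubation with enzyme, 25 min cleavage at room temperature; signal: AMC fluorescence from Ub-AMC cleavage, excitation 355 nm, emission 460 nm; buffer or medium: Tris-HCl pH 7.4 plus ovalbumin, ATP-MgCl2, DTT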
# Beta2AR agonist: beta2AR agonists driving receptor internalization, primary screen, cell-based, FAP fluorogen, flow cytometry | Beta-2 adrenergic receptor (Homo sapiens), P07550 | Am2.2-beta2AR cells; reference of the scale not given here | response, % (no concentration beside the values) | 340,000 tested, 0.43% active | AID 504454, 2011;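 active = response above a set limit, near 3 SD of response in nonfluorescent compounds, cut at about 42% in these data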;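 note: stock transfer was 100 nL into about 11 µL; a reference agonist was the positive control; negative values mostly stem from fluorescent compounds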
# Vif TR-FRET: inhibitors of Vif binding to APOBEC3G peptide, primary screen, biochemical, TR-FRET, GST-Vif 1-94, biotin-A3G peptide, dose response retest (AID 1117319); 260,000 tested, 0.57% active; Virion infectivity factor (Human immunodeficiency virus type 1 group M subtype B (isolate …; TR-FRET GST-Vif / biotin-A3G peptide binding; higher % means a stronger effect; test concentration not given here; strong numbers were not always called active; inhibition, %; hits with a dose series show IC50 in µM;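 active = above the screen mean plus three standard deviations and confirmed in dose response; inconclusive = results disagree or hit not tested in dose response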;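 note: Vif residues 1-94 fused to GST binding biotinylated APOBEC3G peptide 110-148; 0% = full assay without inhibitor and 100% = GST in place of GST-Vif; retest series ran down from 100 µM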
# HNF4A DNA FP: change in binding of human HNF4A to DNA, primary screen, biochemical, fluorescence polarization, FITC-DNA; 1 h; activity change, % at 10 µM; 360,000 tested, 0.3% active; in the data active = activity change above about 30%, passing the limit was not always enough;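 note: controls were the assay level and a saturating level of protein; the project sought stronger binding though the title names inhibitors; some compounds called inactive have numbers as strong as hits; positive values seem to mean higher polarization but the record does not say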
# Ecoli growth: E. coli growth inhibition, primary screen, OD600 | Escherichia coli growth, 23 h; stronger effect = lower value | OD600 absorbance (concentration not given with the values) | 330,000 tested, 0.21% active;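 active = OD600 absorbance below the run mean of sample wells minus 3.6 SD, in any replicate, cut at about 0.56 in these data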;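 note: stock transfer was 300 nL into about 60 µL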
# * hit, by the source's call; u = inconclusive; x = no result given.
SMILES,LANA-H2B inh,Bfl-1 A1 inh,UCH37 DUB inh,Beta2AR agonist,Vif TR-FRET,HNF4A DNA FP,Ecoli growth
CC(C)(CC(=O)O)CC(=O)N1CCN(c2nc3cc(Cl)ccc3s2)CC1,6.5,0.2,-0.7,4,-1%,1.4,0.72
Cn1cccc1C(=O)NCC1COc2ccccc2O1 (stereo unspecified),x,x,2.2,-8,-7%,0.7,0.67
O=C(COC(=O)c1ccccn1)Nc1ncc(C(F)(F)F)cc1Cl,-0.2,0.5,1.9,3,0%,1.7,0.71
[O-][n+]1c2c(nn1-c1ccccc1Cl)-c1nonc1CC2,-0.3,0.0,-3.8,-2,3%,0.7,0.71
COc1cc(CNCc2cccs2)ccc1OCC(=O)NC(C)(C)C,-3.7,1.0,-0.8,-10,3%,-4.2,0.65
CC(/C=N/n1c(-c2cccnc2)n[nH]c1=S)=C\c1ccccc1,-2.5,-0.3,x,0,23%,0.2,x
CCOc1ncccc1C(=O)NCC(c1ccccc1)N(C)C (stereo unspecified),3.4,0.3,0.2,-9,x,0.6,0.75
Oc1c(N=NC(=S)Nc2ccccc2F)c2ccccc2n1Cc1ccccc1,2.3,-0.7,7.8,-10,-1%,-1.1,0.74
CC(C)NCCCCOc1ccccc1-c1ccccc1,1.0,1.8,3.1,x,25%,x,0.67
O=S(=O)(NCc1ccc2c(c1)OCO2)c1ccc(Cl)s1,-0.7,-0.8,1.4,-8,x,0.5,0.68
O=C(O)C1CCCN1S(=O)(=O)c1ccc2[nH]c(=O)c(=O)[nH]c2c1 (stereo unspecified),4.7,x,-7.2,9,22%,-1.0,0.69
Cc1cc(C)n(-c2ccc(S(N)(=O)=O)cc2[N+](=O)[O-])n1,-5.0,0.7,7.4,-3,-4%,-4.2,0.7
CCCCCCCC1(C)NC(=O)N(CC(=O)Nc2cc(C)on2)C1=O (stereo unspecified),3.7,0.9,0.9,0,-8%,3.2,0.66
CCSc1nnc(NC(=O)c2nc(S(=O)(=O)Cc3ccc(F)cc3)ncc2Cl)s1,3.8,3.1,x,12,x,1.7,x
N#C/C(=C\c1ccc(N2CCOCC2)o1)C(=O)NCC1CCCO1 (stereo unspecified),-38,-0.2,31*,2,16%,164,0.71
Cc1nnc(SCC(=O)N2CCc3ccccc3C2)n1-c1ccccc1,8.5,0.1,0.7,-4,-8%,1.6,0.71
CCOC(=O)c1ccc(NC(=O)CSc2nc3c(c(=O)n2C)SC(C)C3)cc1 (stereo unspecified),4.3,-0.8,0.3,-4,12%,0.5,0.66
CCOC(=O)CSc1nnc(-c2ccco2)n1-c1ccccc1,-2.9,1.3,4.2,8,-1%,3.4,0.72
Cc1nnc(-c2cnn(C)c2N)n1Cc1ccc(Cl)cc1,-0.7,-0.1,0.2,-4,70%,0.1,0.7
CCN(Cc1nc2ccccc2c(=O)[nH]1)Cc1cc(=O)oc2cc(OC)ccc12,4.0,1.3,-9.0,6,24%,-0.5,0.77
CN1CCS/C1=C\C=C1/SC(=S)N(CC(=O)O)C1=O,x,x,39*,18,30%,154,0.65
Cc1onc(-c2ccccc2)c1C(=O)c1c[nH]c(C(=O)NCc2ccncc2)c1,1.4,0.9,1.9,1,-5%,-0.2,0.69
O=C1O/C(=C\c2ccccc2)c2ccccc21,1.6,-1.4,-21,-12,5%,-1.6,0.7
O=C(NCc1cccs1)C(=O)NCC(c1ccco1)N1CCN(c2ccc(F)cc2)CC1 (stereo unspecified),4.2,-0.1,-11,-6,-7%,4.6,0.66
CCN(CC)CCCNC(=O)c1cc2c(=O)n(CC)c3ccccc3c2s1,0.1,3.3,-244,-3,-5%,3.0,0.67
Cc1cccc(C)c1NC(=O)CN(C)C(=O)c1cc([N+](=O)[O-])ccc1N1CCOCC1,1.4,0.1,9.0,2,-6%,4.6,0.7
CN(C(=O)c1cccc(NC(=O)Cc2cccc([N+](=O)[O-])c2)c1)C1CCC1,12,-0.7,-1.0,-8,x,-2.6,0.65
COc1ccccc1NC(=O)N(CCCN1CCOCC1)Cc1cc2cc3c(cc2[nH]c1=O)OCO3,-0.5,0.1,-16,-6,x,1.4,0.76
COc1ccc(-c2nc(CS(=O)(=O)CC(=O)NCc3ccccc3OC)c(C)o2)cc1,-2.4,0.4,1.2,-2,x,-0.6,0.65
COc1cccc(OCc2nc3ccccc3[nH]2)c1,3.7,-6.4,7.5,-1,u,-2.6,0.67

# Pulled one by one from the entries so far:
SMILES,LANA-H2B inh,Bfl-1 A1 inh,UCH37 DUB inh,Beta2AR agonist,Vif TR-FRET,HNF4A DNA FP,Ecoli growth
O=C(NCc1cccs1)C(=O)NCC(c1ccco1)N1CCN(c2ccc(F)cc2)CC1 (stereo unspecified),4.2,-0.1,-11,-6,-7%,4.6,0.66
Cc1nnc(-c2cnn(C)c2N)n1Cc1ccc(Cl)cc1,-0.7,-0.1,0.2,-4,70%,0.1,0.7
CCN(CC)CCCNC(=O)c1cc2c(=O)n(CC)c3ccccc3c2s1,0.1,3.3,-244,-3,-5%,3.0,0.67
COc1ccccc1NC(=O)N(CCCN1CCOCC1)Cc1cc2cc3c(cc2[nH]c1=O)OCO3,-0.5,0.1,-16,-6,x,1.4,0.76

# (cont.)
SMILES,LANA-H2B inh,Bfl-1 A1 inh,UCH37 DUB inh,Beta2AR agonist,Vif TR-FRET,HNF4A DNA FP,Ecoli growth
O=C(N/N=C/c1ccccc1O)c1cc[n+]([O-])cc1,-1.3,-0.2,x,2,-2%,0.9,x
O=C1CC(=O)CC(c2ccco2)C1,8.6,0.3,1.8,3,29%,-8.2,0.68
O=C(NCc1cccs1)c1csc2ccccc12,-8.7,0.4,1.3,0,0%,0.4,0.71
CC(=O)c1cccc(CN2CCN(CC(C)C)C(CCO)C2)c1 (stereo unspecified),-0.2,-0.8,-1.3,0,x,-1.0,0.68
O=C(c1cc([N+](=O)[O-])ccc1N1CCOCC1)N1CCCCC1,-1.6,1.7,2.5,0,8%,6.0,0.67
O=C(CCCN1C(=O)c2ccccc2C1=O)Nc1ccc(S(=O)(=O)N2CCCCC2)cc1,1.6,0.7,3.4,1,-4%,0.4,0.73
Cc1nc2ccc(S(=O)(=O)N(C)CC(=O)NCc3ccc4c(c3)OCO4)cc2s1,2.7,0.3,-1.5,-10,-8%,2.3,0.69
O=C1Cc2cc(S(=O)(=O)Nc3ccc(N4CCOCC4)cc3)ccc2N1,-2.8,-0.4,1.5,-1,x,-0.2,0.65
COc1ccccc1NS(=O)(=O)c1cc(C(=O)NCCC(C)C)ccc1F,-1.1,-1.0,2.3,-1,2%,-0.1,0.63
COc1cccc(C(=O)Nc2c3c(nn2-c2cccc(C)c2C)CS(=O)(=O)C3)c1OC,1.3,0.1,1.7,2,-5%,4.3,0.65
CN(C)/N=C/c1cn(-c2ccccc2)nc1-c1cccnc1,-2.7,1.7,x,-20,x,2.2,x
COCCn1c(SCC(=O)N2CCCc3ccccc32)nnc1-c1ccco1,-1.1,-0.9,1.0,-1,10%,-3.0,0.68
COc1ccc(/C=C2\Oc3cc(OCC(N)=O)ccc3C2=O)cc1OC,1.8,-1.1,-1.5,27,4%,3.7,0.62
CC1CC(C)CN(CCCNC(=O)c2ccc3nc(N4CCCCC4)sc3c2)C1 (stereo unspecified),1.9,-0.7,4.0,2,x,1.3,0.73
O=C(CCC(=O)N(CC(=O)NC1CCCC1)C1CCCCC1)Nc1ccccn1,-7.2,0.4,1.6,8,-3%,1.4,0.68
Cc1ccc(S(=O)(=O)CCC(=O)Nc2nccs2)cc1,1.0,0.1,-2.5,1,-2%,2.2,0.7
CCN(CC)c1cccc(OCC(=O)N2c3ccccc3CC2C)c1 (stereo unspecified),2.8,0.3,3.4,8,2%,6.5,0.67
CC(C)(C)c1ccc(Oc2ncccc2NC(=O)c2cccs2)cc1,-2.8,-0.3,-0.3,1,-10%,-4.4,0.62
CCOc1ccc(C(=O)NCC(=O)Nc2ncccc2C)cc1OCC,-1.6,0.9,3.7,2,x,3.2,0.67
COc1ccc(C2OC(=O)Cc3cc(OC)c(OC)cc32)cc1 (stereo unspecified),4.1,0.0,3.2,2,5%,-1.7,0.71
CC(=O)N(Cc1cc(=O)[nH]c2ccccc12)c1ccc(C)cc1,3.1,0.4,-2.5,-4,1%,-1.5,0.77
COc1ccc(S(=O)(=O)NCCC(=O)NC2CCCCCCC2)cc1,1.0,0.0,5.3,-3,32%,0.1,0.68
O=C(CNCc1ccccn1)Nc1ccc([N+](=O)[O-])cc1C(=O)Nc1ccccc1F,0.4,-0.2,1.8,2,x,0.8,0.68
O=C1Nc2cc(C(=O)NCCCN3CCOCC3)ccc2S/C1=C/c1cccc(Cl)c1,-0.9,-0.4,-9.0,20,x,2.9,0.64
Cc1ccc(C(=O)N/N=C2\SCC(=O)N2c2cc(C)ccc2C)cc1,1.1,0.0,x,-5,5%,1.9,x
Cc1ccc(NC(=O)CN(C)C(=O)c2ccccc2Cc2ccccc2)cc1,x,x,-1.6,3,3%,2.6,0.61
Cc1nn(C)cc1CNC(=O)Nc1ccc(Cl)c(Cl)c1,-0.3,-0.4,-0.6,-7,16%,3.2,0.68
CCOCCCNC(=O)C1CCN(C(=O)Nc2ccc(C)cc2)CC1,-2.6,-1.0,3.5,8,4%,-1.4,0.71
CCOC(=O)C1(CC2CCCCO2)CCN(S(=O)(=O)c2ccccc2)CC1 (stereo unspecified),-2.2,-0.4,5.9,-1,-7%,1.8,0.71
CC(Sc1nnc(CC(C)c2ccccc2)n1N)C(N)=O (stereo unspecified),-0.9,0.2,4.5,-7,6%,1.6,0.67

# Reformatted: results already given
molecule	LANA-H2B inh	Bfl-1 A1 inh	UCH37 DUB inh	Beta2AR agonist	Vif TR-FRET	HNF4A DNA FP	Ecoli growth
CC(C)(C)c1ccc(Oc2ncccc2NC(=O)c2cccs2)cc1	-2.8	-0.3	-0.3	1	-10%	-4.4	0.62
CCOc1ccc(C(=O)NCC(=O)Nc2ncccc2C)cc1OCC	-1.6	0.9	3.7	2	x	3.2	0.67
COc1ccc(C2OC(=O)Cc3cc(OC)c(OC)cc32)cc1 (stereo unspecified)	4.1	0.0	3.2	2	5%	-1.7	0.71

# Next compounds
SMILES,LANA-H2B inh,Bfl-1 A1 inh,UCH37 DUB inh,Beta2AR agonist,Vif TR-FRET,HNF4A DNA FP,Ecoli growth
CCNC(=O)CN1C(=O)NC(CCc2ccccc2)C1=O (stereo unspecified),-0.3,0.2,2.2,6,20%,2.7,0.69
Cc1cc(C(=O)NNC(=O)c2cccc([N+](=O)[O-])c2)n[nH]1,-0.5,0.9,1.1,-6,-7%,3.1,0.68
COc1ccc(OCc2cccc(C(=O)Nc3ccc(CN4CCCCC4)cc3)c2)cc1,-0.7,-0.6,1.7,7,11%,2.6,0.66
N#Cc1nc(Cc2cccc3ccccc23)oc1N1CCOCC1,4.2,-0.8,0.3,-5,1%,4.1,0.7
COc1ccccc1NC(=O)COC(=O)COc1ccccc1F,x,x,-1.0,-3,-2%,5.7,0.68
Nc1n[nH]c(N)c1N=Nc1ccccc1,1.0,0.3,14,2,x,-0.1,0.69
CC(=O)N(CCN1CCOCC1)Cc1cc2cc3c(cc2nc1Cl)OCO3,-4.7,0.7,3.9,4,10%,0.6,0.71
O=C1NC[C@H](c2ccccc2)N(CCc2cc(C(F)(F)F)cc(C(F)(F)F)c2)C1=O,-0.6,1.3,2.3,-1,-3%,2.8,x
